ugtP null kill: growth inhibition of ugtP-null S. aureus, primary screen, RN4220 ugtP deletion, OD600; AID 1259309, 2017; growth inhibition, % (test concentration not listed); 16 h; some inactives read as strong as hits; hit rate 0.54% among 330,000;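 active = z-score under -3 and OD600 up to 0.15 on both plates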;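 note: plate controls were untreated wells for no effect and antibiotic for full effect; wells of about 80 µL received 100 nL stock; the first replicate is given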
BJeLR lethal: MLPCN primary cell-based screen for lethality selective to Ras in HRASV12 cells; hit rate 0.17% among 300,000; BJeLR (HRASV12) viability, CellTiter-Glo ATP luminescence, 48 h; reference of the scale not given here; inhibition, % (concentration not given with the values);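 active = replicate mean above 50%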;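 note: 50 nL library stock added to about 25 µL; numbers are from one replicate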
Autofluor counter: counter-screen for toxin protease inhibitors: compound fluorescence | fluorescence intensity (concentration not given with the values) | hit rate 3.1% among 360,000 | AID 624483 | compound autofluorescence counterscreen, microsphere flow cytometry; hits give high values;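 active = at least 3 SD above the mean of all compounds, about 16000 in these data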;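 note: 100 nL of 1 mM stock went into each well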
Sa RN4220 lethal: growth inhibition of S. aureus RN4220, primary screen, OD600. AID 1259311, 2017. inhibition, % (concentration not given with the values). hit rate 0.33% among 330,000. 16 h;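 active = z-score of -3 or lower and OD600 up to 0.18 on both plates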;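 note: plate controls were untreated cells for no effect and reference antibiotic for full effect; stock transfer was 100 nL into about 80 µL; one replicate is shown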
Mtb hypoxia rep: PubChem AID 1159583. fluorescence inhibition, % (concentration not given with the values). M. tuberculosis hypoxia-regulated fluorescent reporter, fluorescence. hit rate 0.1% among 300,000;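 active = 35 to 45% if threefold the growth effect, above 45% if 1.5-fold the growth effect; inactive = the rest, general growth blockers included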;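 note: wells of about 50 µL received 100 nL stock; 0% = vehicle wells and 100% = reference inhibitor wells; whole bacteria with a GFP reporter of the hypoxia response; strong numbers were not always called active; many hits fall short of the cut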
PrP 5UTR inh: inhibition of PrP 5' UTR reporter expression | cell-based PrP 5' UTR mRNA reporter, plate reader | inhibition, % (no concentration beside the values) | hit rate 0.35% among 340,000 | AID 488862, 2010;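 active = every replicate at 50% or more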;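 note: 0 = median of the neutral control wells; tested in H4 reporter cells; numbers are from one replicate; inactives centre near -14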
Mtb hypoxia rep growth: recorded beside Mtb hypoxia rep, whose call it bears; growth inhibition, %; measured here: M. tuberculosis growth (absorbance);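 0% = vehicle and 100% = reference antibiotic; read after six days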
An asterisk follows results filed as active; · = no result given.

The line under a structure holds: Mtb hypoxia rep, ugtP null kill, Mtb hypoxia rep growth, Sa RN4220 lethal, Autofluor counter, BJeLR lethal, PrP 5UTR inh
1. CCN1C[C@@H]2[C@@H]3C(=O)N(Cc4ccccc4)C(=O)[C@@H]3[C@](CC)(C(=O)OC)N2C1=NCc1ccccc1
    4, 0, 7, 1.7, 3752, ·, -20
2. Cc1ccc(S(=O)(=O)Nc2ccc(NC(=O)c3c(F)c(F)c(F)c(F)c3F)cc2)cc1
    0, 3, 11, 4.2, 5108, 1, -11
3. NC(=O)COc1ccc(C=NNC(=O)CC(=O)NCCc2ccccc2)cc1
    3, 9, -3, 5.0, ·, ·, ·
4. CCC(C)Cn1c(C)nc2ccccc21 (configuration not stated)
    -3, -8, 3, 9.3, 3563, 1, -10
5. Cc1nc2ccccn2c1C(=O)NN=Cc1ccc([N+](=O)[O-])o1
    -5, 82, 12, 98*, ·, ·, ·
6. Cc1cn(CCC(=O)Nc2ccccc2N2CCOCC2)c2ccccc12
    -6, -4, 14, 6.5, ·, 8, -39
7. Cc1ccc(NC(=O)C(=O)NCc2ccc(/C=C(/C#N)C(=O)NCc3cccnc3)o2)cc1
    -3, -7, 0, 1.6, 10571, 6, ·
8. Cc1cc(NC(=O)CC#N)n(-c2ccccc2)n1
    7, 6, 5, 3.6, 4996, 4, -29
9. CC(Oc1ccccc1Cl)C(=O)/C=C/N(C)C (configuration not stated)
    -1, 6, 1, 2.6, 20970*, 5, -14
10. CCCCNC(=O)c1nc2ncc(Br)cn2n1
    8, 6, 9, 2.5, 11347, -4, -2
11. CCOC(=O)Cc1cnc(NC(=O)CSc2nc(C)cc(C)n2)s1
    -1, 5, 1, 4.8, 4194, 4, -25
12. O=C(CN1CCCc2ccccc21)N1CCc2ccccc21
    -2, 3, 0, 0.3, 6774, 2, 8
13. Cc1nc(CCNC(=O)CC2C(=O)NCCN2Cc2ccccc2F)sc1C (configuration not stated)
    -7, 13, -1, 2.3, 4673, 5, -21
14. CCCNC(=O)C1(CC2CC(c3ccccc3)=NO2)CCN(C(=O)c2ccccc2)CC1 (configuration not stated)
    10, -3, -1, -1.6, 4163, ·, -12
15. Fc1ccc(Br)cc1C=NN1CCN(c2ccccc2)CC1
    3, 2, -3, 3.5, ·, ·, ·
16. Cn1c(=O)c2c(nc(NCc3ccc4c(c3)OCO4)n2C)n(C)c1=O
    12, 1, 3, 6.2, 7213, 4, -12
17. N=c1n(CCN2CCOCC2)c2ccccc2n1CC(=O)c1cccc([N+](=O)[O-])c1
    3, -1, 4, 0.0, ·, -4, -1
18. CCOC(=O)c1c(C)[nH]c(C)c1C(=O)CSc1nc2ccccc2n1CCOC
    1, 1, 14, 4.0, 2204, -3, -10
19. C=CC[N@@+]12CC[C@@]34c5ccccc5N5C=C6C7CC8[C@@]9(CC[N@@+]8(CC=C)CC7=CCO)c7ccccc7N(C=C(C(CC31)C(=CCO)C2)C54)C69 (some centres not stated)
    -1, 7, 2, 7.7, ·, ·, ·
20. Cc1cc(=O)oc2c(C)c(OC(C)C(=O)NCCCN3CCOCC3)ccc12 (configuration not stated)
    2, 6, 12, 0.6, 5503, 3, 2
21. C=CCc1ccccc1OCCn1ccnc1
    -11, -2, 4, 0.6, 10388, -14, -14
22. COC(=O)c1ccccc1NC(=O)C1CC(=O)N(c2ccccc2)C1 (configuration not stated)
    6, 1, 11, 4.5, 22918*, 0, -7
23. CC(C)CCN1CCN(Cc2ccc(C#CCCO)cc2)CC1CCO (configuration not stated)
    -3, 3, 2, 5.5, 5799, 1, -18
24. CC1=C(C#N)C2(O)C(=O)c3ccccc3C2(O)N1 (configuration not stated)
    -5, 2, 14, 3.7, 4574, ·, -3
25. O=C1c2ccccc2-c2nc3ccccc3cc21
    13, 23, 0, 0.8, 3124, -3, -65
26. COC(=O)C1=NN(C(=O)c2ccccc2)C(C)(O)C1 (configuration not stated)
    6, 5, -7, 1.7, 4016, 4, -2
27. O=C(CCc1nnc(Cc2ccc(-c3ccccc3)cc2)o1)NCCc1cccnc1
    -1, 0, -2, 1.3, 3937, -2, -33
28. N=c1c2c(-c3ccccc3)c(-c3ccccc3)n(Cc3ccccc3)c2ncn1CCCO
    5, 3, 7, -2.9, 5553, -4, -11
29. COCC1CCCN(C(=O)c2ccc3oc(Cc4ccc(Cl)cc4)nc3c2)C1 (configuration not stated)
    7, 12, -11, 5.1, 3940, 11, -17
30. CC(=O)c1cccc(NC(=O)CSc2nc(=O)n(CCN3CCOCC3)c3c2CCC3)c1
    -7, -2, 8, -0.4, 6427, 3, -7

Grouped by structure, the compounds so far containing an aryl thioether with sulfur outside any ring.
The line under a structure holds: Mtb hypoxia rep, ugtP null kill, Mtb hypoxia rep growth, Sa RN4220 lethal, Autofluor counter, BJeLR lethal, PrP 5UTR inh
11. CCOC(=O)Cc1cnc(NC(=O)CSc2nc(C)cc(C)n2)s1
    -1, 5, 1, 4.8, 4194, 4, -25
18. CCOC(=O)c1c(C)[nH]c(C)c1C(=O)CSc1nc2ccccc2n1CCOC
    1, 1, 14, 4.0, 2204, -3, -10
30. CC(=O)c1cccc(NC(=O)CSc2nc(=O)n(CCN3CCOCC3)c3c2CCC3)c1
    -7, -2, 8, -0.4, 6427, 3, -7

Back to the main list, repeating the three entries before the break.
The line under a structure holds: Mtb hypoxia rep, ugtP null kill, Mtb hypoxia rep growth, Sa RN4220 lethal, Autofluor counter, BJeLR lethal, PrP 5UTR inh
28. N=c1c2c(-c3ccccc3)c(-c3ccccc3)n(Cc3ccccc3)c2ncn1CCCO
    5, 3, 7, -2.9, 5553, -4, -11
29. COCC1CCCN(C(=O)c2ccc3oc(Cc4ccc(Cl)cc4)nc3c2)C1 (configuration not stated)
    7, 12, -11, 5.1, 3940, 11, -17
30. CC(=O)c1cccc(NC(=O)CSc2nc(=O)n(CCN3CCOCC3)c3c2CCC3)c1
    -7, -2, 8, -0.4, 6427, 3, -7
31. CC1/C(=N/O)C(CN(C)C)C2CC1C2(C)C (configuration not stated)
    ·, ·, ·, ·, 2872, 1, -17
32. O=C(CSc1nnc(-c2ccc(F)cc2)o1)N1CCCCC1
    46*, -6, 30*, 1.5, 3892, -1, -36
33. CC(C)(C)OC(=O)NC(Cc1ccccc1)C(=O)N1CCC(C(=O)NCC(=O)Nc2ccc(F)cc2)CC1 (configuration not stated)
    -1, 2, -2, 1.2, 6044, -9, -9
34. CC(O)[C@@]1(O)CC[C@H]2[C@@H]3CC[C@H]4C[C@@H](O)CC[C@]4(C)C3=CC[C@@]21C (some centres not stated)
    ·, ·, ·, ·, 2876, 15, -16
35. O=C(O)Cn1cc(/C=C2\C(=O)NC(=O)N(c3ccc(Br)cc3)C2=O)c2ccccc21
    ·, ·, ·, ·, 3906, -6, -1
36. CC(N=Cc1nc(-c2ccccc2)oc1O)c1ccccc1 (configuration not stated)
    9, 14, 9, 4.5, 15573, 6, -6
37. C=CCn1c(C2CC(=O)N(c3ccc(C)cc3)C2)nc2ccccc21 (configuration not stated)
    -2, -8, 5, -0.2, 5710, -4, 3
38. O=C(NCCCN1CCCCC1)C1CCC(=O)N1CCc1ccccc1 (configuration not stated)
    14, 7, 3, 0.8, 2226, -7, -5
39. CC(C)OC(=O)/C(=C\c1cccnc1)NC(=O)c1ccccc1
    6, 11, -4, 4.7, 4336, 3, 42
40. Cc1cc(/C=C\c2ccccc2)nc2ccccc12
    7, 0, 4, 3.2, 4326, -2, -104
41. Cc1cc(C)cc(C(=O)NC(CC(N)=O)c2ccc(NC3CCCC3)c([N+](=O)[O-])c2)c1 (configuration not stated)
    8, 4, 16, -2.2, 4233, 4, -38
42. COCCN(C(=O)CNC(=O)c1cccs1)C(C(=O)NC(C)(C)C)c1ccccc1 (configuration not stated)
    2, 7, 5, 2.1, 2147, -4, -14
43. COc1ccc2cc(S(=O)(=O)n3cnc(C)c3)ccc2c1
    15, -11, 9, 5.8, 3993, 0, -16
44. CN(C)c1ccc(-c2noc(C3CCN(C(=O)Nc4ccc(Cl)cc4)CC3)n2)cc1
    7, 3, 2, 7.3, 3243, 3, 8
45. COc1ccc(CNC(=O)COC(=O)CC(NC(N)=O)c2ccc(Cl)cc2)cc1OC (configuration not stated)
    -4, 4, 5, 1.6, 3513, ·, -16
46. O=C(Nc1ccccc1)Nc1ccccn1
    0, -3, 9, 5.2, 11348, -4, -19
47. O=C(CN1C(=O)/C(=C\C=C\c2ccccc2)SC1=S)Nc1ccc(F)cc1
    -2, 3, 6, -1.2, 2623, -34, -14
48. Cc1ccccc1C(=O)NNC(=O)CCC(=O)Nc1cccc(Cl)c1C
    6, 3, 0, 3.8, 1937, -3, -14
49. Cc1ccc(-n2nnc3ccccc3c2=O)cc1C
    ·, 7, ·, -1.5, 2457, -11, -62
50. COC(=O)c1ccc(NC(=O)CN(c2ccc(C)cc2)S(=O)(=O)c2c(C)nn(C)c2C)cc1
    -2, 21, 7, 8.0, 11061, 2, -13
51. Nc1ccc2nc3c(=O)[nH]c(=S)[nH]c3nc2c1
    2, 17, -4, 6.0, 4818, 7, -23
52. O=C(COC(=O)c1ccc([N+](=O)[O-])cc1)NCCC1=CCCCC1
    4, 0, -1, 5.2, 3996, ·, -7
53. C[C@]12c3[nH]c4ccc(Cl)cc4c3CCN1C(=O)[C@@H](CC(=O)NCCc1ccccn1)C[C@@H]2C(=O)N1CCOCC1
    -3, 2, 9, 2.3, 3719, ·, -26
54. COc1cccc(NC(=O)C(OC(=O)c2ccccc2NS(=O)(=O)c2cccs2)c2ccccc2)c1 (configuration not stated)
    6, 14, -5, 9.9, 2514, 3, -43
55. CCOc1cccc(CNCCCSc2ncccn2)c1
    -4, 6, -1, 1.8, 3724, -6, 2

Complete entries as entered above. Screens in order: Mtb hypoxia rep	ugtP null kill	Mtb hypoxia rep growth	Sa RN4220 lethal	Autofluor counter	BJeLR lethal	PrP 5UTR inh
`CCOc1cccc(CNCCCSc2ncccn2)c1` as listed: -4	6	-1	1.8	3724	-6	2
`COC(=O)C1=NN(C(=O)c2ccccc2)C(C)(O)C1` (configuration not stated) as listed: 6	5	-7	1.7	4016	4	-2

Source: PubChem (several laboratories)
